UCH37 inh – inhibitors of human deubiquitinating enzyme UCH37; purified proteasome/UCH37, Ub-AMC cleavage fluorescence; Q9Y5K5; actives 0.33% (n = 330,000); inhibition, % (concentration not given with the values); AID 588478;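 active = mean of two replicates above 20%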;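 note: 0% = compound-free wells with enzyme and 100% = wells lacking proteasome; stock transfer was 100 nL into about 20 µL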
Target sequence (Q9Y5K5 whole entry, looked up): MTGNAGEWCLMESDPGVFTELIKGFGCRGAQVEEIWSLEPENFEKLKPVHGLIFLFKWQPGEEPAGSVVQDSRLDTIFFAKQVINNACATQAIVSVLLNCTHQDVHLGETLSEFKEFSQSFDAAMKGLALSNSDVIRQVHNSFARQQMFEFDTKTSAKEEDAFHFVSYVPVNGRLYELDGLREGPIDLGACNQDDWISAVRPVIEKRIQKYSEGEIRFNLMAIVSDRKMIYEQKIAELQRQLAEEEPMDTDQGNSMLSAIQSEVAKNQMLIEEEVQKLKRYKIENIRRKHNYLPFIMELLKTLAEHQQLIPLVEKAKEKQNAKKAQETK
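Material: Human UCH37 enzyme supplied as purified proteasome complex | Schedule: 30 min compound-proteasome preincubation then 25 min substrate reaction, room temperature | Detection: AMC fluorescence from Ub-AMC cleavage, excitation 355 nm, emission 460 nm | Benchmarks: Wells without proteasome as full block, compound-free enzyme plus substrate as uninhibited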
Starred values were filed as active, the others as inactive. Some of the compounds tested; the hit share may differ from the screen's.

SMILES | UCH37 inh
CC1(C)N=C(C=NO)C=[N+]1[O-] | 4.8
CN1CCN(c2ccccc2C=NNC(=O)c2cccnc2)CC1 | 5.5
COc1ccccc1/C=C/C=Nn1c(-c2n[nH]c3c2CCC3)n[nH]c1=S | 5.9
Cc1c(C=NNC(=O)c2cc(=O)[nH]c(=O)[nH]2)c2ccccn2c1C(=O)c1ccccc1 | 11.6
Brc1ccc(C=NNc2ccccn2)cc1 | 2.1
NC(=NN=Cc1ccc2c(c1)OCO2)c1nonc1N | 8.8
COc1ccc(Br)cc1C=NNC(=O)c1ccco1 | 4.1
Cc1cc(C)n(CCC(=O)NN=Cc2ccccc2O)n1 | -55.5

Copied from the list:
In UCH37 inh, Cc1c(C=NNC(=O)c2cc(=O)[nH]c(=O)[nH]2)c2ccccn2c1C(=O)c1ccccc1 shows 11.6
In UCH37 inh, COc1ccc(Br)cc1C=NNC(=O)c1ccco1 shows 4.1
In UCH37 inh, NC(=NN=Cc1ccc2c(c1)OCO2)c1nonc1N shows 8.8
In UCH37 inh, Brc1ccc(C=NNc2ccccn2)cc1 shows 2.1

Following part:
SMILES | UCH37 inh
COc1ccc2c(c1)C(=NN1C(=O)c3ccccc3C1=O)C(=O)N2 | 1.8
Cc1cccc(N=Cc2c(O)ccc3oc4c(c23)CCCC4)n1 | 5.3
Cc1cc(C)nc(NN=Cc2ccccc2OCc2ccc(Br)cc2)n1 | 0.6
Cc1c(C=NNC(=O)c2cc(C(C)(C)C)[nH]n2)c2ccccc2n1C | 5.8
CON=C(COc1ccc(F)cc1)c1ccc(OC)cc1 | 0.0
Cc1ccc(S(=O)(=O)N2CCN(CC(=O)NN=Cc3ccc(O)c(O)c3)CC2)cc1 | -3.9
CC(=O)N(N=Cc1cccc(C)c1)c1nc(-c2ccc(Br)cc2)cs1 | 0.4
Cc1ccc(CN2CCN(N=Cc3ccc(Cl)c([N+](=O)[O-])c3)CC2)cc1 | 8.2

The list continues.
SMILES | UCH37 inh
COCCNC(=O)C(=O)NN=Cc1ccc(C(=O)OC)cc1 | 0.8
COc1cccc2c(NN=Cc3ccco3)cc(C)nc12 | -10.2
O=C(NN=Cc1ccc(-c2cccc([N+](=O)[O-])c2)o1)c1ccc([N+](=O)[O-])cc1 | 11.4
CCN(C(=O)CON=Cc1ccc(OC)cc1OC)c1c(N)n(Cc2ccccc2)c(=O)[nH]c1=O | 2.4
S=c1[nH]nc(-c2ccco2)n1N=C/C=C/c1ccco1 | 15.8
CC(C)c1ccc(S(=O)(=O)N=C2C=C(Sc3ncn[nH]3)C(=O)c3ccccc32)cc1 | 67.2*
Oc1ccccc1C=NN1CCCCC1 | 5.6
CC(=NNC(=O)c1ccco1)c1ccc(NC(=O)c2ccc(Br)o2)cc1 | 6.0

Other compounds.
SMILES | UCH37 inh
COc1ccccc1/C=C/C(=O)NCC(=O)NN=Cc1ccccc1[N+](=O)[O-] | 7.0
Cc1cc(C)n(Cc2cccc(C(=O)NN=Cc3ccncc3)c2)n1 | -0.9
CC(CCc1oc2ccccc2c1-c1ccc(C)o1)=NO | 3.9
COc1ccc(C=NNC(=O)c2ccccc2NC(=O)c2ccco2)c(OC)c1 | -3.2
O=C(CN1CCN(Cc2ccc(Cl)cc2)CC1)NN=Cc1cccc(F)c1 | 1.3
COc1cc(C=NNC(=O)CNC(=O)C(c2ccccc2)c2ccccc2)ccc1O | -1.8
CCNC(=S)NN=Cc1cccc(C=NNC(=S)NCC)c1 | -15.5
O=C(Cn1cnc([N+](=O)[O-])n1)NN=Cc1cc(Cl)ccc1O | 4.1

Additional compounds.
SMILES | UCH37 inh
Cc1cc(=O)[nH]c(NN=Cc2c(F)c(F)c(F)c(F)c2F)n1 | 9.5
COC(=O)C/C=C/[C@@H](C)[C@@H](C=NOC[C@@H](C)[C@H](OCc1ccccc1)C(C)C)NS(=O)(=O)c1ccc(C)cc1 | 2.4
S=C(NN=Cc1ccccc1Cl)Nc1cccc(Cl)c1Cl | 6.9
NC(CC(=O)NCCOc1ccccc1)=NO | 2.6
C=CCOc1ccc(C=NNC(=O)CN2CCOCC2)cc1OCC | 3.3
COC(=O)NN=C(C)c1ccc(C)c([N+](=O)[O-])c1 | 6.5
O=C(NN=Cc1cccc(Br)c1)c1ccc(N2CCCC2=O)cc1 | 6.6
O=C(CCCOc1ccc(Cl)cc1Cl)NN=Cc1ccccc1 | 3.3

New compounds follow
SMILES | UCH37 inh
CC(=NNc1ccc(F)cc1)c1ccncc1 | -0.6
Cc1c(C=NNc2ccc([N+](=O)[O-])cn2)c2ccccc2n1Cc1ccccc1 | 9.5
Cc1onc(-c2ccccc2)c1C(=O)NN=Cc1ccco1 | 6.0
CC(SCc1ccccc1)C(=O)NN=Cc1ccc(OCC(=O)NCc2ccco2)cc1 (stereo not given) | 3.8
Nc1nnc(CC(=O)NN=Cc2cccc([N+](=O)[O-])c2)s1 | -5.2
Cc1ccc(-c2cc(C(=O)NN=Cc3cnn(C)c3C)c3ccccc3n2)cc1C | -16.6
CC(C)(C)NC(=O)CCN(N=Cc1ccccc1O)C1=NS(=O)(=O)c2ccccc21 | -14.6
CC(=NNc1c(Cl)c(Cl)nc(C(=O)O)c1Cl)c1ccc(O)cc1 | 9.5

More compounds
SMILES | UCH37 inh
CCOc1ccc(Br)cc1C(=O)NN=Cc1ccc([N+](=O)[O-])cc1 | 6.9
Cc1nn(-c2ccccc2)c(N2CCCC2)c1C=NNC(=S)Nc1cc(C(F)(F)F)ccc1Cl | -15.7
COc1cc(OC)c(OC)cc1C=NNC(=O)c1cnccn1 | 41.4*
COc1ccc(N(CC(=O)NN=Cc2cccnc2)S(=O)(=O)c2ccc(C)cc2)cc1OC | 5.2
CC(C)Oc1ccc(CNC(=S)NN=Cc2cccnc2)cc1 | 3.8
C=C(C)C1CC=C(C)C(=NNC(=O)c2ccc(NC(=O)c3cccc(C)c3)cc2)C1 (stereo not given) | 0.2
Cc1ccc(C=NNC(=O)c2nnn(-c3nonc3N)c2CSc2ccc(Cl)cc2)cc1 | 0.5
CON=Cc1cc([N+](=O)[O-])ccc1Sc1ccc(C)cc1 | 4.9

(continued)
SMILES | UCH37 inh
N#CCCn1cc(C=N/N=C2\NC(=O)C(CC(=O)O)S2)c(-c2ccc(F)cc2)n1 (stereo not given) | 4.7
COc1ccc(OC)c(C=NN(C)c2ccccc2)c1 | 0.7
O=C(ON=Cc1cccc([N+](=O)[O-])c1)C1CC1 | 5.0
Cc1ccc(C(=O)NN=Cc2ccc(N3CCOCC3)cc2)c(C)c1 | -14.9
Cc1ccc(-n2[nH]c(C)c(C=C3C=Nc4ccccc43)c2=O)cc1C | 8.1
CC(=NNC(=O)c1ccccc1NC(=O)c1ccc(Cl)cc1)c1ccncc1 | -0.4
Clc1cc(-c2ccc(C=Nn3cnnc3)o2)ccc1Br | 0.3
CCCCC1S/C(=N/N=Cc2ccco2)NC1=O (stereo not given) | 5.3

The listing continues.
SMILES | UCH37 inh
C(=Nn1c2ccccc2c2ccccc21)c1ccco1 | 6.4
COc1ccccc1NCC(=O)NN=C(C)c1cccs1 | 1.0
Cc1cc(C)n2nc(C(=O)NN=Cc3cn(C)nc3C)nc2n1 | 4.0
O=C(NN=Cc1ccc(S(=O)(=O)O)o1)c1ccc2c(c1)OCO2 | 6.2
COc1cccc(-c2c(C(=O)NN=Cc3cccs3)nnn2-c2nonc2N)c1 | 3.4
O=c1c2c(-c3ccc(Cl)cc3)csc2ncn1N=Cc1cccc([N+](=O)[O-])c1O | 5.6
NC(=S)NN=Cc1cn(-c2ccccc2)nc1-c1cccnc1 | 3.9
COC(=O)C/C=C/[C@@H](C)[C@@H](C=NOC[C@H]1O[C@H](c2ccccc2)C=C[C@@H]1Oc1ccc(OC)cc1)OC | 3.2

Next section:
SMILES | UCH37 inh
CC(C)(C)OC(=O)NN=Cc1cccnc1 | 1.6
O=C(Nc1cccc2ccccc12)ON=C1CCCCC1 | -72.2
COc1cc([N+](=O)[O-])ccc1-c1ccc(C=NNC(=O)c2ccccc2O)o1 | 7.9
CC(/C=C/c1ccco1)=NNC(=O)Cc1cccs1 | 3.7
Cc1nn(-c2ccccc2)c(C)c1C=NNC(=O)c1cc(C23CC4CC(CC(C4)C2)C3)[nH]n1 | 2.7
C=CCn1c(=C2C(=O)N(CC)C(=S)N2c2ccccc2)sc(=C2SC(C)=C(C)N2CC)c1=O | 4.9
Cc1sccc1C=NNC(=O)c1ccco1 | 14.3
CCCCNC(=S)NN=Cc1ccc(OCC(=O)Nc2c(C)cc(C)cc2C)c(OC)c1 | 1.3

Next part.
SMILES | UCH37 inh
Cn1cc(C=NNc2ccccc2)c2ccccc21 | -51.1
Cc1ccc(C=NNC(=O)C2CC(=O)N(c3ccccc3)C2)s1 (stereo not given) | 5.1
COc1ccc(C=NNC(=O)c2cc(C)n(-c3ccccc3)c2C)cc1OC | 8.9
Cc1ccc([N+](=O)[O-])cc1-c1ccc(C=NNC(=O)CN2CCOCC2)o1 | 13.6
COc1ccc(C(C)=NN=C(C)c2ccc(OC)cc2OC)c(OC)c1 | -1.2
Cc1ccc(C=NN2CCCCC2)o1 | 2.8
COc1c(C=NNC(=O)c2ccccc2O)c(CCN(C)C(C)=O)cc2c1OCO2 | 5.3
COC(=O)Cc1cc(=O)[nH]c(N=C(N)Nc2ccc(C)cc2C)n1 | -0.6

Further entries follow:
SMILES | UCH37 inh
Cc1ccc(C=Nn2c(C)cc(C)c(C#N)c2=O)cc1 | 9.7
CC(=NNS(=O)(=O)c1ccc(C)c([N+](=O)[O-])c1)c1cc2ccccc2o1 | 7.0
CC(=NNC(=O)C(c1ccncc1)N1CCOCC1)c1ccc(Br)cc1 (stereo not given) | 3.0
CC(=NNC(=O)c1nnn(-c2nonc2N)c1CSc1ccccc1)c1cccnc1 | 0.4
O=C(C[n+]1cccc(C=NO)c1)N(Cc1ccccc1)Cc1ccccc1 | 1.0
CC1(C)C(c2cccs2)=[N+]([O-])C2(CCCCCC2=NNC(N)=O)N1O (stereo not given) | 1.7
Cc1ccc(C(=O)ON=C(c2nonc2N)N(C)C)cc1 | 6.2
O=C(NN=Cc1ccc(OC(=O)c2ccccc2)cc1)c1cccnc1 | -3.1

Other compounds follow.
SMILES | UCH37 inh
Cc1nnc(SCC(=O)NN=Cc2cn(-c3ccccc3)nc2-c2ccccc2)n1-c1ccccc1 | 1.1
CCCc1sc(NN=Cc2ccccn2)nc1-c1ccc(F)cc1 | -8.0
O=C(NN=Cc1ccc(Cl)cc1Cl)c1n[nH]c2c1CCCC2 | 6.6
O=C(NN=C/C(Br)=C/c1ccccc1)c1cnccn1 | 9.4
Nc1nonc1-n1nnc(C(=O)NN=Cc2c(F)cccc2Cl)c1-c1ccc2c(c1)OCO2 | -57.4
CS(=O)(=O)Oc1ccc(C=NNC(=O)c2ccncc2)cc1 | -0.4
O=C(CCCC(=O)NN=Cc1ccccn1)NN=Cc1ccccn1 | -0.4
CC(CC(=O)Nc1ccc(N(C)C)cc1)=NNC(=O)c1ccc([N+](=O)[O-])cc1Cl | 3.5

Next part.
SMILES | UCH37 inh
COc1cc(C=NNc2ccc(S(N)(=O)=O)cc2[N+](=O)[O-])cc(OC)c1O | 5.8
COc1ccc(C(=O)c2cnc(N=CN(C)C)s2)cc1 | -4.8
O=C(NN=Cc1cccc2ccccc12)c1cc2ccccc2o1 | -9.2
CN1CCN(N=Cc2ccc(Cl)c(Cl)c2)CC1 | 3.0
CCc1ccc(C=NNC(=O)Cc2cccn2C)cc1 | 3.8
CCOc1cccc(-c2c(C(=O)NN=Cc3ccc(C)o3)nnn2-c2nonc2N)c1 | -7.0
CC(=O)C(=NNc1ccccc1)Sc1nncn1C | 8.2
Oc1ccccc1C=Nn1c(-c2cccs2)n[nH]c1=S | 1.5

Compounds above with a COOH group, in the order listed:
SMILES | UCH37 inh
CC(=NNc1c(Cl)c(Cl)nc(C(=O)O)c1Cl)c1ccc(O)cc1 | 9.5
N#CCCn1cc(C=N/N=C2\NC(=O)C(CC(=O)O)S2)c(-c2ccc(F)cc2)n1 (stereo not given) | 4.7

Carrying on.
SMILES | UCH37 inh
Cc1ccc(S(=O)(=O)N(C)N=Cc2ccc(N(C)C)cc2)cc1 | 3.9
O=C(NN=Cc1ccc([N+](=O)[O-])cc1)c1cnccn1 | 10.9
CCCN(CCC)Cc1c(C(=O)NN=C/C(C)=C\c2ccccc2)nnn1-c1nonc1N | 6.3
O=C(NN=Cc1cccc2ccccc12)c1cccs1 | 1.0
CC(=NNc1cc(N2CCOCC2)nc(C)n1)c1ccc(F)cc1 | 5.2
COc1cc2ccccc2cc1C(=O)NN=Cc1cccnc1 | 4.2
O=C(NN=Cc1ccc([N+](=O)[O-])o1)c1cn(-c2ccccc2)nc1-c1ccccc1 | 7.9
COc1cccc(C=NNC(=O)CCC(=O)Nc2ccc(Br)cc2)c1 | 4.2

(further entries)
SMILES | UCH37 inh
Cn1c(=NNC(=O)C2CCCCC2)sc2ccccc21 | 1.3
Cc1cc[n+](-c2[nH]c(=O)sc2C=NNC([S-])=Nc2ccccc2)cc1C | 19.0
COc1ccc(C=NNC(=O)CNC(=O)COc2ccccc2)cc1 | 2.1
N=C1SCC(=O)N1N=Cc1ccccc1 | 2.5
Clc1ccc(Cn2cc(C=Nn3cnnc3)c3ccccc32)cc1 | 1.8
Cc1ccc(-c2n[nH]c(=S)n2N=Cc2ccc(C(=O)O)cc2)cc1 | 1.8
COc1ccc(C=NNC2=NCCCCC2)cc1 | 5.1
CCCCNC(=S)N(C)N=Cc1ccc(F)cc1 | 2.9

(listing goes on)
SMILES | UCH37 inh
Cc1ccccc1C=N/N=C1/NC(=O)CCS1 | 2.7
CCOc1cc(C=NNC(=O)c2ccc(NC(=O)C3CC3)cc2)ccc1O | 5.2
O=C(NN=Cc1cccnc1)c1cccc(NC(=O)c2ccccc2Cl)c1 | 2.6
Cc1cccc(NC(=O)CCC(=O)NN=Cc2cccnc2)c1 | -1.1
Cc1nc2scc(-c3ccccc3)c2c(=O)n1N=Cc1ccco1 | 0.4
COc1ccc(C=Nc2c(-c3ccco3)nc3ccccn23)cc1OC | -175.8
CCN(CC)C(=O)COc1ccc(C=NNC(=O)c2cc(-c3ccccc3OC)nc3ccccc23)cc1OC | -7.0
COc1ccc(C(=O)NN=Cc2c[nH]c3ccccc23)cc1 | 4.3
